Polio RdRp inh: poliovirus RdRp elongation inhibitors, primary screen, biochemical, fluorescence polarization, total intensity | poliovirus polymerase elongation; stronger effect = lower value | % elongation, % (compound at 16.7 µg/mL) | 150,000 tested, 0.66% active; in the data active = % elongation below about 90%; note: some results filed as inactive read as strong as hits
Target sequence (P03300 1749-2209 limits assumed): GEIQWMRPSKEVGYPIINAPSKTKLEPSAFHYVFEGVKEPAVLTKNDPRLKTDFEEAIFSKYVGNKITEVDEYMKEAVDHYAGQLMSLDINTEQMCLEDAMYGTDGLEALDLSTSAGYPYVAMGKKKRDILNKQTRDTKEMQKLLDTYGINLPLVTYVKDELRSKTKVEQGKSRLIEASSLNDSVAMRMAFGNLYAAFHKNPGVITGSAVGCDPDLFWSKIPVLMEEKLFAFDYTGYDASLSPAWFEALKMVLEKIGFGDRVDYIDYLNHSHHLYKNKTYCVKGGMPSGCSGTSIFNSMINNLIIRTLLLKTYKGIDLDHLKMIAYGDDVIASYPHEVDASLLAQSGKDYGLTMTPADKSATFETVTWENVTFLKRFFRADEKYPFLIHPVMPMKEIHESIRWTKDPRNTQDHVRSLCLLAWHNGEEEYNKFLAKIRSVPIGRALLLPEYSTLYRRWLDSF
MbtI inh: MbtI salicylate synthase inhibitors, primary screen, biochemical, fluorescence intensity | 100,000 tested, 0.89% active | purified MbtI enzyme, fluorescence intensity read-out | P9WFX0 | inhibition, %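 (about 17 µg/mL by stock and volumes)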;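 active = above 50% in both replicates, above 80% if mildly self-fluorescent; inactive = the rest, strongly fluorescent compounds included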;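 note: 0% = mean of negative and 100% = mean of positive controls; one replicate is shown; some compounds called inactive have numbers as strong as hits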
Target sequence (P9WFX0 whole entry, looked up): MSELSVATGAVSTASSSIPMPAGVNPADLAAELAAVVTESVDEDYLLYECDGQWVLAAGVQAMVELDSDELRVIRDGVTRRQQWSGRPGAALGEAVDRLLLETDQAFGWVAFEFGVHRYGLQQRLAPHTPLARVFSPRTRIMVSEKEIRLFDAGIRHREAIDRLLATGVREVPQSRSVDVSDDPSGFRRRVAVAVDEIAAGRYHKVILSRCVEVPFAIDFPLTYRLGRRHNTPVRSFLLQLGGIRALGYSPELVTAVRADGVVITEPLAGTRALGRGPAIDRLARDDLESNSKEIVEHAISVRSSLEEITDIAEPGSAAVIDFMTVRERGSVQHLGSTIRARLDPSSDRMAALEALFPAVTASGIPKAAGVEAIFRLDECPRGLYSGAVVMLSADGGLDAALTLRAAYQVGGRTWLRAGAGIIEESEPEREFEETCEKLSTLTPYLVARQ
Mtb MenB inh: M. tuberculosis MenB inhibitors, primary screen, biochemical, absorbance; 1,4-dihydroxy-2-naphthoyl-CoA synthase (Mycobacterium tuberculosis (strain ATCC 25618 / …; MenB enzyme assay, absorbance read-out; some hits fall short of the stated cut; inhibition, %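 (about 12 µg/mL by stock and volumes)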; 100,000 tested, 0.43% active; AID 540299, 2011;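 active = mean of two replicates above 30%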;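 note: 0% = no compound and 100% = wells with inactive enzyme; the first replicate is given; strong numbers were not always called active; inactives centre near -10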
Polio RdRp inh intensity: recorded beside Polio RdRp inh, whose call it bears; % elongation; measured here: total intensity read-out; formula for this scale not given here;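 total fluorescence in place of polarization; lower means less elongation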
The depositor's hits bear a star; x = no result given; & = joins results of further samples.

entry	compound	Polio RdRp inh	Polio RdRp inh intensity	MbtI inh	Mtb MenB inh
1	COc1ccc(/C=C(/C#N)S(=O)(=O)c2ccccc2)cc1Cn1nc(C)cc1C	100	102	-15	-26
2	CN(C(=O)COC(=O)c1ccc2c(=O)n3c(nc2c1)CCC3)c1ccccc1	x	x	-15	3
3	CN(C)C(=O)N1CCCC(C(=O)NCc2ccccc2)C1 (stereo unspecified)	101	104	11	-6
4	Cc1ccc(-n2c(SCC(=O)C(C)(C)C)nc3ccccc3c2=O)cc1	104	100	-2	-15
5	O=C(COC(=O)C1CC1)Nc1ccccc1	105	107	-36	10
6	CC(=O)Oc1ccc2nc(-c3cccs3)oc(=O)c2c1	104	104	7	-2
7	CCOC(=O)c1oc2nc(-c3ccco3)cc(-c3ccco3)c2c1N	105	125	-10	-2
8	COc1ccc(CC(=O)Nc2cc(C)c3c(=O)oc4ccccc4c3n2)cc1	101	106	3	-7
9	Cc1[nH]c(-c2ccc3c(c2)OCO3)nc1C(=O)O	100	99	53	-18
10	COc1ccc(Nc2nc(OC)nc(OC)n2)cc1	105	99	-3	-79
11	CCOC(=O)c1c(C#N)c(SCC(=O)Nc2ccc(OC)cc2)nc2c1CN(CC)CC2	102	104	8	11
12	N=C(N)SCC(=O)Nc1ccccc1	100	103	4	23*
13	COC(=O)c1ccccc1NC(=O)Cn1sc2ccccc2c1=O	99	105	-14	-9
14	CC(C)(C)c1cn2c3ccccc3n(N)c2n1	101	97	33	-21
15	Cc1nn(C)c(C)c1S(=O)(=O)N1CCC(C(=O)NC2CCCCCC2)CC1	102	104	5	-18
16	O=C1CCCC2=C1C(c1ccccc1)C1=C(CCCC1=O)O2	101	101	-11	-22
17	CC(Oc1ccc(F)cc1)c1n[nH]c(=S)o1 (stereo unspecified)	103	102	-7	-21
18	CCC1CCCCN1C(=O)c1sc2nc(C)cc(C)c2c1N (stereo unspecified)	101	100	54	4
19	O=C(CSc1nnc2c(n1)[nH]c1ccccc12)c1ccccc1	109	112	-8	-13
20	COc1ccc(-n2c(=O)c3c4c(sc3n3c(C)nnc23)COC(C(C)C)C4)cc1 (stereo unspecified)	105	104	-3	-18
21	CC(C)C(=O)OCC1CCCN2CCCCC12 (stereo unspecified)	97	134	x	-12
22	CC1(C)Cc2ccccc2-c2c1c(=O)n(Cc1ccccc1)c1n[nH]c(=S)n21	98	94	-189	-53
23	COC(=O)/C=C1\SCC(=O)N1CC(=O)NCCc1ccc(OC)c(OC)c1	101	113	-4	-15
24	Cc1ccc(OC(=O)C(C)(C)C)cc1C	99	102	-17	-16
25	Cc1c(C(=O)OC(C)C(=O)N(C)c2ccccc2)oc2ccccc12 (stereo unspecified)	104	101	37	-18
26	CC1=NN(Cc2ccccc2)C(=O)/C1=C\c1ccc(N(C)C)cc1	104	103	-10	-9
27	Nc1ccc2nc(SCc3cccc(F)c3)sc2c1	101	103	4	-7
28	COc1ccc(-c2cc(C)nc(N)c2C#N)cc1	105	104	x	-15
29	Cc1nn2cc(-c3ccc(-c4ccccc4)cc3)nc2s1	102	98	-1	x
30	c1ccc2c(c1)oc1c(N3CCNCC3)ncnc12	103	99	12	-27
31	Cc1ccc(N2C(=O)CC(N3CCN/C3=C3/CC/C(=C\c4ccccc4)C3=O)C2=O)cc1 (stereo unspecified)	106	111	-6	-15
32	O=C1/C(=C\c2ccco2)N=C(SCc2nc3sc4c(c3c(=O)[nH]2)CCCC4)N1c1ccc(OC(F)F)cc1	142	198	22	-20
33	O=C(Cn1cc(C(F)(F)F)ccc1=O)N1CCCC1	101	108	-1	-8
34	CN(C1CCCCC1)S(=O)(=O)C1CCS(=O)(=O)C1 (stereo unspecified)	99	95	-2	1
35	N#Cc1ccc(CSc2nc(-c3cccs3)c3c(c2C(=O)O)CCCC3)cc1	103	104	x	1
36	COc1ccc(NC(=O)CSCc2cc(=O)[nH][nH]2)cc1	x	x	13	-44
37	COc1cccc(/C=N/NC(=O)c2oc3nc(-c4ccccc4)cc(-c4ccco4)c3c2N)c1	70	192	-14	-12
38	CCCCCCn1c(COc2ccccc2F)nnc1SCC(=O)/C(C#N)=C(\C)N	98	108	-11	4
39	CCCCn1ccnc1C(=O)c1cc(Cl)cc(Cl)c1	102	98	2	x
40	CC(=O)On1cc(F)c(=O)[nH]c1=O	100	100	x	-23
41	Cc1ccc(CC(=O)NCCN(C)C)cc1	104	101	-8	-24
42	O=C(NCc1ccco1)c1ncoc1-c1ccc2ccccc2c1	100	103	91	-4
43	O=C(O)c1ccccc1S(=O)O	100	99	10	27
44	NCCc1ccc(O)c(O)c1	99	102	10	7
45	O=C(Nc1ccccc1C(=O)N/N=C/c1ccco1)c1ccc(Cl)cc1	105	101	0	-10
46	CCOC(=O)c1c(C)[nH]c2ccc(C)cc2c1=O	103	103	22	-35
47	C=CCN1C(=O)c2ccccc2Sc2ccc(C(=O)NC3CCCCC3C)cc21 (stereo unspecified)	102	95	-5	-16
48	CN(C)S(=O)(=O)c1ccc(S(=O)(=O)N2CCCC(C(=O)NC(C)(C)C)C2)cc1 (stereo unspecified)	104	101	-9	-38
49	CCS(=O)(=O)c1ccc(O)c(NC(=O)CCCC(=O)O)c1	97	99	-3	-18
50	C/C(=C\C(=O)c1ccc(C)o1)Nc1ccc(C(=O)O)cc1C	102	107	-3	-251
51	CC1CN(S(=O)(=O)c2cccc(C(=O)NCC(c3ccco3)N(C)C)c2)CC(C)O1 (stereo unspecified)	105	109	7	-10
52	CC(=O)Nc1ccccc1-c1nc2ccccc2s1	99	100	x	-7
53	CCn1cc(C(=O)N2CCN(c3ccc(F)cc3)CC2)c(=O)c2cc(S(=O)(=O)N(C)C)ccc21	103	102	4	-6
54	O=C(Nc1cnc2ccccn2c1=O)c1ccccc1	103	108	-1	-3
55	O=C(Nc1ccc(Br)c(C(F)(F)F)c1)c1ccc(=O)[nH]c1	105	113	9	-8
56	CC(C)c1ccc2oc(-c3cccc(N)c3)nc2c1	101	102	114	-21

Carrying on.
entry	compound	Polio RdRp inh	Polio RdRp inh intensity	MbtI inh	Mtb MenB inh
57	CCN(C(=O)C1CCCN(c2nc(-c3ccc(OC)cc3)no2)C1)c1ccccc1F (stereo unspecified)	103	108	-9	-31
58	Cc1ccc(C(=O)OCC(=O)N2CCOCC2)cc1	101	105	-1	4
59	CC(=O)NCCC(=O)O	106	103	-7	-14
60	CC(C)(C)Cc1nc(-c2ccccc2)no1	103	103	-11	-15
61	NC(=O)C1CCN(C(=O)c2ccc(NC3=NC4CS(=O)(=O)CC4S3)cc2)CC1 (stereo unspecified)	101	98	7	1
62	N#Cc1ccccc1Cn1cc(/C=C2\NC(=O)NC2=O)c2ccccc21	106	114	x	-45
63	CCN(CC)c1ccc(CN(C)CCc2ccc(OC)c(OC)c2)cc1	100	102	2	-3
64	O=C(Oc1ccccc1)c1ccc(F)cc1	102	103	-10	4
65	Cc1ccc(-n2nc3c(c2NC(=O)COc2ccc(Cl)cc2)CSC3)c(C)c1	103	103	-7	0
66	COc1ccc(C2C(=O)c3cc(OC)c(OC)cc3C2c2ccccc2)cc1OC (stereo unspecified)	105	109	-8	-25
67	CCN(CC)C(=O)/C=C/c1cn(-c2ccccc2)nc1-c1ccccc1	103	105	-3	x
68	COc1ccccc1NC(=O)/C=C1\SCC(=O)N1C	106	96	10	16
69	O=c1oc(-c2ccccc2)nc2scc(-c3ccccc3)c12	101	102	x	3
70	Cc1cc(C)cc(N2C(=O)C(C)SC23CCCCC3)c1 (stereo unspecified)	101	101	x	-5
71	Cc1ccc2cc(C#N)c(N3CCCN(S(=O)(=O)c4ccccc4)CC3)nc2c1	99	109	-4	-78
72	O=C(CNC(=S)N(Cc1ccccc1F)C1CCCCC1)N1CCc2ccccc21	102	109	0	-20
73	Cn1nc(C(=O)N2CCCc3ccccc32)c2ccccc2c1=O	103	105	4	-32
74	CC(=O)NC12CC3CC(C1)CC(C(=O)OCC(=O)Nc1ccccc1C(=O)NC1CC1)(C3)C2	104	111	-14	-3
75	CCn1cc(C(=O)Nc2cccc(OC)c2)c2cc(OC)c(OC)cc2c1=O	100	106	-10	-16
76	CC1(C)C2CCC1(CS(=O)(=O)NCc1ccncc1)C(=O)C2 (stereo unspecified)	104	101	-11	-54
77	CCN(CC)S(=O)(=O)c1cccc(C(=O)N/N=C/c2ccc(OC(=O)c3ccco3)c(OC)c2)c1	110	110	21	9
78	CCC(Sc1nnc2c3ccccc3n(C)c2n1)C(=O)Nc1ccccc1C#N (stereo unspecified)	103	104	x	-7
79	CC(=O)O/N=C(\N)Cc1ccc(-c2csnn2)cc1	101	106	7	3
80	CC(NC(=O)CN1CSCC1=O)C12CC3CC(CC(C3)C1)C2 (stereo unspecified)	106	112	-6	-12
81	c1ccc(NCn2cncn2)nc1	99	100	x	-40
82	c1ccc2c(c1)CCCN2Cc1nnc2n1CCCCC2	101	92	6	x
83	CCN(CC)CC(O)CN1CCn2c3c(c4cc(C)ccc42)CCCC31 (stereo unspecified)	102	102	38	-21
84	CC(C)OC(=O)C1C(=O)CC(C)(O)C(C(=O)OC(C)C)C1c1ccccc1 (stereo unspecified)	101	101	4	-14
85	O=C(O)c1nc(N2CCOCC2)ncc1Cl	92	96	-4	3
86	O=C(CCSc1nnc2c(n1)[nH]c1ccccc12)N1CCOCC1	100	102	-11	1
87	CC(=O)Oc1ccc(C(=O)c2ccc(OC(C)=O)cc2)cc1	105	109	x	-14
88	N#Cc1ccccc1NC1=CC(=O)CCC1	102	102	15	-19
89	Cc1cc(C)nc(Nc2ncc(O)n2-c2ccc(Cl)c(Cl)c2)n1	103	99	-1	-15
90	Cc1ccc2nc(CN(C)Cc3c(F)cccc3Cl)cc(=O)n2c1	104	108	11	-22
91	CCOC(=O)[C@@H]1[C@@H]2NC(=O)N[C@@]1(C)Oc1ccccc12	102	107	x	-13
92	Cn1c(=O)c2cc(C(=O)NCC3CCCO3)sc2c2ccc(Cl)cc21 (stereo unspecified)	103	104	4	-15
93	COc1ccc(C(=O)c2ccc(OC)cc2O)c(O)c1	102	102	1	-18
94	CCC(=O)Nc1nc2ccc(S(C)(=O)=O)cc2s1	103	109	x	-16
95	COc1cc2c(cc1OC)C(NNC(=O)C(F)(F)C(F)F)=NC(C)(C)C2	101	101	4	-5
96	CCCn1c(=O)cc(N)n(-c2ccccc2C)c1=O	101	103	2	-2
97	CCC(CO)NS(=O)(=O)c1c(C)nc2sccn2c1=O (stereo unspecified)	106	99	28	-23
98	COCCn1c(N)c(C(=O)NS(=O)(=O)c2ccc(C)cc2)c(=O)[nH]c1=O	100	106	-5	-8
99	Cc1cc(C(F)(F)F)c2c(C)nn(-c3ccccc3)c2n1	101	103	43	x
100	CS(=O)(=O)Nc1cc(Cl)c(O)c(Br)c1	110	103	10	3
101	N#CC(C#N)=Cc1ccc([N+](=O)[O-])c(O)c1	102&99	103&96	-163	-7
102	C(=C\c1ccco1)/C1=NN(Cc2ccccc2)CC1	135	145	-13	-28
103	O=C(CSc1cn[nH]n1)Nc1ccccc1	103	102	51	-32
104	O=S(=O)(c1cccs1)N1CCC(C(c2ccccc2)c2ccccc2)CC1	108	106	-2	-20
105	O=C1CC(C(=O)NCCc2ccccc2)C2(CCCCC2)O1 (stereo unspecified)	105	101	-12	-40
106	CN(C)S(=O)(=O)N(C)c1ccc(O)cc1	99	100	5	0
107	O=c1[nH]c(=S)[nH]nc1-c1ccc(F)c(F)c1	98	97	101*	-16
108	Fc1ccc(-c2nnc3n2N=C2CCCCC2S3)cc1 (stereo unspecified)	99	107	14	6

Among those listed so far, 13 contain an NH in an aromatic ring:
entry	compound	Polio RdRp inh	Polio RdRp inh intensity	MbtI inh	Mtb MenB inh
9	Cc1[nH]c(-c2ccc3c(c2)OCO3)nc1C(=O)O	100	99	53	-18
17	CC(Oc1ccc(F)cc1)c1n[nH]c(=S)o1 (stereo unspecified)	103	102	-7	-21
19	O=C(CSc1nnc2c(n1)[nH]c1ccccc12)c1ccccc1	109	112	-8	-13
22	CC1(C)Cc2ccccc2-c2c1c(=O)n(Cc1ccccc1)c1n[nH]c(=S)n21	98	94	-189	-53
32	O=C1/C(=C\c2ccco2)N=C(SCc2nc3sc4c(c3c(=O)[nH]2)CCCC4)N1c1ccc(OC(F)F)cc1	142	198	22	-20
36	COc1ccc(NC(=O)CSCc2cc(=O)[nH][nH]2)cc1	x	x	13	-44
40	CC(=O)On1cc(F)c(=O)[nH]c1=O	100	100	x	-23
46	CCOC(=O)c1c(C)[nH]c2ccc(C)cc2c1=O	103	103	22	-35
55	O=C(Nc1ccc(Br)c(C(F)(F)F)c1)c1ccc(=O)[nH]c1	105	113	9	-8
86	O=C(CCSc1nnc2c(n1)[nH]c1ccccc12)N1CCOCC1	100	102	-11	1
98	COCCn1c(N)c(C(=O)NS(=O)(=O)c2ccc(C)cc2)c(=O)[nH]c1=O	100	106	-5	-8
103	O=C(CSc1cn[nH]n1)Nc1ccccc1	103	102	51	-32
107	O=c1[nH]c(=S)[nH]nc1-c1ccc(F)c(F)c1	98	97	101*	-16

Sorted by molecular weight (largest number first): some entries from above.
entry	compound	Polio RdRp inh	Polio RdRp inh intensity	MbtI inh	Mtb MenB inh
105	O=C1CC(C(=O)NCCc2ccccc2)C2(CCCCC2)O1 (stereo unspecified)	105	101	-12	-40
107	O=c1[nH]c(=S)[nH]nc1-c1ccc(F)c(F)c1	98	97	101*	-16
103	O=C(CSc1cn[nH]n1)Nc1ccccc1	103	102	51	-32

High-throughput results (PubChem)
